Assay outcomes (PubChem BioAssay)
Yeast UUG start: modulators of yeast start codon fidelity, primary screen, whole organism, S. cerevisiae, single point, plate reader; S. cerevisiae UUG-firefly luciferase reporter, luminescence/redox ratio; AID 602363, 2012; activity score, % at 18.7 µM; hit rate 0.13% among 350,000;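 active means replicate mean at a twofold rise or more, about +100% in these data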;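 further: firefly luciferase made from a UUG start codon reports start codon fidelity; reporter light over untreated wells divided by growth signal over untreated wells; some hits fall short of that in this replicate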
PABP FP inh: PABP poly(A) RNA binding inhibitors, primary screen, biochemical, fluorescence polarization, uHTS; Polyadenylate-binding protein 1 (Homo sapiens), P11940; inhibition, % at 35 µM; AID 2014, 2009; hit rate 1% among 290,000;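 active means 50% or more with normal probe brightness, or confirmed in later tests; about a fifth of its hits are not listed in these tables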;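 further: calls also rest on retests at 20 µM and on dose response follow-up; controls were probe without protein and protein plus probe with vehicle; some compounds called inactive have numbers as strong as hits; many hits fall short of the cut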
Target sequence (P11940 whole entry, looked up): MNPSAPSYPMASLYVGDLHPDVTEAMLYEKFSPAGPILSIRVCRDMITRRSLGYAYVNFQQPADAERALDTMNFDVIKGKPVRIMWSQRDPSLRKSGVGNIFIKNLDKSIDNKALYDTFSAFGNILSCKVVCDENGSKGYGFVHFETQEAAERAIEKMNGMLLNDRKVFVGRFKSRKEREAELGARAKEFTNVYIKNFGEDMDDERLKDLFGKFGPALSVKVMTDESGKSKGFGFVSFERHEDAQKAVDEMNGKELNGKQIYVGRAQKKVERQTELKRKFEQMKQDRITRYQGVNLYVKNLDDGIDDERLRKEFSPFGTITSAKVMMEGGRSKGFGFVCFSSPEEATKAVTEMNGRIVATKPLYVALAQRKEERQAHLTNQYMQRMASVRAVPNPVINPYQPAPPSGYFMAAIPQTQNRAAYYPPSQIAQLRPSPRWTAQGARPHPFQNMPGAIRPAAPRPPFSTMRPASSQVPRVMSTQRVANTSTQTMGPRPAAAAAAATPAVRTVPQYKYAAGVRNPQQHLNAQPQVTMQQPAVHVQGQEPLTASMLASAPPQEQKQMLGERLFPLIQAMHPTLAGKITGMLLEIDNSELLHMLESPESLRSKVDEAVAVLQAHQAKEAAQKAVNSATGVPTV
CSC inhib: cancer stem cell viability inhibitors, primary screen, luminescence. cancer stem cell-like cells viability. inhibition, % at 7.5 µM. hit rate 1.1% among 300,000;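 active means mean at 75% or more and at least half the replicates too; tested in HMLE shEcad cells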;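 further: 0% = median of negative and 100% = median of positive control wells; the first replicate is given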
MT1-MMP act inh: blockers of MT1-MMP proenzyme processing, primary screen, HT1080 RFP-PRO-GFP cells, GFP/RFP fluorescence; GFP/RFP ratio fluorescence, overnight; percent of plate control window, DMSO zero; AID 651647, 2012; GFP/RFP ratio change, % at 20 µM; hit rate 0.061% among 360,000;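 active means GFP/RFP ratio change of at least 30% with cell ATP level not reduced by more than half and red fluorescence within 50% of control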; further: strong numbers were not always called active
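Material: RFP-PRO-GFP reporter HT1080 cells. Dosing: single-point 20 µM compound, 1% DMSO. Controls: DMSO and RFP-L50D-GFP cell wells. Timing: cells overnight before dosing, compound overnight, 37 °C, 5% CO2. Measure: GFP/RFP fluorescence ratio.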
HIV Env fusion: inhibitors of HIV-1 Env-driven cell-cell fusion, primary screen, HeLa-JRFL effector, CEM21 target cells, luciferase | hit rate 1.1% among 360,000 | inhibition, % at 12.3 µM | AID 651610, 2012;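 active means mean replicate inhibition score of at least 50 and every replicate individually at or above 50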;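 further: 0% = plate neutral controls and 100% = maraviroc near 300 nM; one replicate is shown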
eIF4H FP inh: human eIF4H binding inhibitors, primary screen, translation initiation inhibitor project, biochemical, uHTS, fluorescence polarization | hit rate 0.94% among 290,000 | Eukaryotic translation initiation factor 4H (Homo sapiens), Q15056 | inhibition, % at 35 µM | AID 2012, 2009 | eIF4H fluorescence polarization binding assay;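 active means 50% or more with normal probe brightness, or confirmed in later tests; about a fifth of its hits are not listed in these tables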;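 further: calls also rest on retests at 20 µM and on dose response follow-up; 0% = protein and probe with vehicle and 100% = probe without protein; strong numbers were not always called active; many hits fall short of the cut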
Rce1 inh: yeast Rce1p protease inhibitors, primary screen, biochemical, fluorescence, cell-free homogeneous; AID 2563, 2010; hit rate 0.27% among 290,000; CAAX prenyl protease 2 (Saccharomyces cerevisiae (strain ATCC 204508 / S288c)), Q03530; yeast membranes, quenched prenylated peptide cleavage fluorescence; calls only;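 active means fall in fluorescence gain of 50% or more versus controls, with final raw signal at or below 3038400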;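 further: plate controls were neutral control wells for no effect and wells lacking membranes for full effect; tested at 10 µM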
MT1-MMP act inh RFP: second read-out of MT1-MMP act inh, no call of its own (marks repeat the call); RFP signal change, %; measured here: RFP expression control read;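 0 = vehicle wells; hits needed this value within 50% of zero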
An asterisk follows results filed as active; i = inactive; x = no result given; & = joins results of further samples.

Results follow in this order: MT1-MMP act inh	MT1-MMP act inh RFP	HIV Env fusion	CSC inhib	eIF4H FP inh	Rce1 inh	Yeast UUG start	PABP FP inh
> CC(C)(C)NC(=O)c1ccc2nsnc2c1
  -2	-4	-2	-6	13	i	x	-4
> CCn1nc(C)c(CNC(=O)Nc2ccc3c(c2)OCO3)c1C
  -5	2	1	4	-6	i	-24	-12
> O=C(Nc1ccon1)c1ccc(OC2CCCC2)cc1
  5	-3	-71	-4	-8	i	-21	-8
> COc1cccc(OCc2cc(C(=O)NC(C)c3cnn(C)c3C)no2)c1 (stereo unspecified)
  1	-2	-10	-5	-7	i	-1	2
> CCCC1(CCC)NC(=O)N(CC(=O)Nc2ccccc2OC)C1=O
  1	3	-35	3	-2	x	x	7
> O=C(NC1CCCC1)c1cc2c(ccc3ccccc32)o1
  3	6	x	24	6	i	-3	8
> Nc1ccc2nc[nH]c2c1
  6	11	13	-5	-8	i	x	-14
> Cc1ccc(N2CCOCC2)c2c1C(=O)c1ccccc1C2=O
  8	0	-21	-12	9	i	x	-15
> c1ccc2c(c1)nc(N1CCOCC1)c1nnnn12
  -11	4	-212	x	29	i	-18	-2
> CCCS(=O)(=O)N1CCN(Cc2ccccc2OCC)CC1
  0	1	-31	-10	6	i	-9	5
> COCCNC(=S)NC1CC2CCCC(C1)N2Cc1ccco1 (stereo unspecified)
  2	2	x	-18	-12	i	-19	1
> O=C(CSc1nc2ccccc2c(=O)n1Cc1ccco1)N1CCCC1
  -1	3	-21	19	-4	i	x	2
> CCCc1[nH]nc2c1C(c1ccc(O)cc1OCC)C(C#N)=C(N)O2 (stereo unspecified)
  -4	-2	x	-3	-13	i	-17	-8
> CCCCn1c(C(C)NC(=O)c2cccs2)nc2ccccc21 (stereo unspecified)
  0	-2	4	-12	-6	i	-20	14
> Cn1c(=O)cc(SCC(=O)N2CCOCC2)c2ccc(Cl)cc21
  -1	-6	18	2	7	i	-25	2
> CCN(Cc1cnn(C)c1)C(=O)CC1C(=O)NCCN1Cc1cccc(OC)c1OC (stereo unspecified)
  -1	2	7	-9	-1	i	x	-13
> C=CCO/N=C/C1C(=O)CC(C)(C)CC1=O
  1	4	9	-6	7	i	x	33
> O=C(NC1CCCCC1)C(c1ccncc1)N(C(=O)c1csnn1)c1ccccc1 (stereo unspecified)
  1	3	2	0	-3	i	3	10
> COc1cc2cc(CN(Cc3cccnc3)C(=O)Nc3ccccc3)c(=O)[nH]c2cc1OC
  4	1	-6	-10	0	i	x	4
> COc1ccc(/C=N/NC2=NS(=O)(=O)c3ccccc32)cc1
  1	1	1	-4	-10	i	-17	-2
> COc1ccc(C(=O)C2CCN(C(=O)c3ccc(OC)cc3)CC2)cc1
  -1	-26	6	-5	-9	i	18	6
> O=C(O)CSc1nnc(C2CC2)n1-c1ccccc1
  1	8	7	-7	-3	i	-8	7
> COc1ccc(S(=O)(=O)N2CCCC(C(=O)N3CCOCC3)C2)cc1C (stereo unspecified)
  1	0	x	-3	2	i	-6	6
> O=[N+]([O-])c1ccc(N2CCN(CCO)CC2)cc1NCc1ccco1
  0	-2	6	61	8	i	x	4
> CCCCN(CC)CCNC(=O)c1cc2c(=O)n(C)c3ccccc3c2n1C
  2	-2	-49	-5	0	i	-12	9
> O=C(Nc1cccc(-c2csc(Nc3ccccc3)n2)c1)c1ccccc1
  5	-8	-233	100*	-4	i	-14	-5
> CCCOc1c(Br)cc(C(=O)NCC)cc1OC
  -2	1	x	4	-4	i	-36	-12
> COc1ccc(CNC(=O)CN(CC2CCCO2)C(=O)CNS(=O)(=O)c2ccc(C)cc2)cc1 (stereo unspecified)
  -3	0	x	-5	-5	i	7	1
> CCN(CC)C(=O)CN1C(=O)C(=O)c2ccccc21
  -2	4	19	9	-5	i	x	-3
> Cc1ccccc1NC(=S)Nc1ccc2[nH]c(=O)[nH]c2c1
  5	8	-6	-7	-9	i	-30	-6
> COc1ccc(C(=O)NCC(=O)OCC(=O)Nc2sccc2C#N)cc1OC
  -1	0	-11	0	34	i	x	-1
> Cc1nnc(NC(=O)c2ccc(S(=O)(=O)N(C)Cc3ccccc3)cc2)o1
  7	0	x	22	19	i	-33	-1
> CN(Cc1ccccc1)C(=O)c1cccc(NC(=O)Cc2ccc([N+](=O)[O-])cc2)c1
  5	-16	24	-4	x	x	-10	x
> CC(=O)Nc1ccc(NC(=O)COC(=O)CCCc2c[nH]c3ccccc23)cc1
  4	1	-3	-7	x	i	-9	x
> CCCCN(C)C(=O)c1cc2cc3ccc(OC)cc3nc2s1
  3	-1	-244	14	-1	i	-42	-2
> COCCn1nnnc1C(c1cccc(C#N)c1)N1CCCCCC1 (stereo unspecified)
  -2	0	x	-22	-8	i	-17	38
> O=C(OCC(=O)N1CCCC1=O)c1ccc(O)cc1O
  0	1	-21	x	x	i	x	x
> BrC(=C\c1ccccc1)/C=N/N1CCN(c2ccccc2)CC1
  0	1	7	8	-2	i	x	-3
> Cc1ccc(-n2ccnc2SCC(=O)O)c(C)c1
  9	3	x	-5	6	i	x	-2
> CC1CCN(S(=O)(=O)c2ccc(C(=O)Nc3ncccc3O)cc2)CC1
  2	1	23	5	20	i	-4	-4
> c1ccc(CNc2nc(-c3ccccn3)nc3ccccc23)cc1
  -2	-18	32	50	10	i	-14	-14
> O=C(NCc1ccccc1Cl)c1ccc2c(c1)OCO2
  1	-4	-18	4	-1	i	-14	-2
> COc1cccc(C(=O)C2CCCN(C(=O)c3ccccc3Cl)C2)c1 (stereo unspecified)
  0	-9	9	-2	6	i	11	-4
> Cc1ccc(NC(=O)c2nc[nH]c2C(=O)N[C@@H](C)c2ccccc2)cc1
  6	-3	9	11	11	i	-13	-2
> Cc1oc(-c2cccc(Cl)c2)nc1CS(=O)(=O)CC(=O)NCc1ccco1
  -4	-2	-3	-6	0	i	-3	10
> CCOCC(=O)Nc1c(C(=O)Nc2ccccc2OC)oc2ccccc12
  -3	-3	-59	-8	10	i	-1	4
> Cc1ccc(C(C)C)c(OCC(=O)Nc2sc3c(c2C#N)CC(C)(C)NC3(C)C)c1
  -1	-6	x	65	-6	i	5	-6
> N#C/C(=C1/CCCCCN1)c1nc2ccccc2[nH]1
  6	-1	x	10	2	i	-7	-8
> Cc1ccc(S(=O)(=O)N2[C@@H](c3ccc(C(C)(C)C)cc3)C(C(=O)O)=CC[C@H]2c2cccs2)cc1
  -2	4	14	x	x	x	-8	x
> CCC(C)c1ccccc1NC(=O)CN(C)CCOc1ccc(Cl)cc1 (stereo unspecified)
  -8	-2	15	12	8	i	-2	2
> CC(C)(C)c1nc(CN2CCOCC2)cc(CN2CCOCC2)c1O
  -5	-5	18	-8	2	i	-1	38
> COc1ccc(C2=NN(C(=O)c3ccccc3)C(c3cccc([N+](=O)[O-])c3)C2)cc1 (stereo unspecified)
  0	-5	10	6	-4	i	x	-3
> O=C(CN1C(=O)NC2(CCCCCC2)C1=O)NCc1ccccc1Cl
  -3	-1	x	-16	x	x	-5	x
> CCc1ccc(NC(=O)COC(=O)Cn2cnc3ccccc32)cc1
  0	1	0	x	x	x	-4	x
> CN(CC(=O)Nc1ccccc1Cl)C(=O)Cn1cnc2ccc(Cl)cc2c1=O
  -4	-2	0	x	x	x	-23	x
> C=CCNC(=O)c1ccc(CSc2nc3ccccc3s2)cc1
  4	-13	-9	6	-6	i	-21	-2
> Cc1ccc(C(=O)N/C(=C/c2ccco2)C(=O)N2CCCCC2)cc1
  0	5	-5	-5	0	i	-12	18
> Cc1oc2cc3oc(=O)c(CC(=O)O)c(C)c3cc2c1-c1ccccc1
  -4	1	3	2	-2	i	-15	2
> Cc1ccc(CS(=O)(=O)c2nsc(C)c2C#N)cc1
  -2	-2	2	-5	8	i	x	8
> COc1ccc(Oc2c(C)nc(SCC(=O)c3ccc(Cl)cc3)[nH]c2=O)cc1
  3	1	3	-1	-7	i	-9	-4

Additional structures follow:
Results follow in this order: MT1-MMP act inh	MT1-MMP act inh RFP	HIV Env fusion	CSC inhib	eIF4H FP inh	Rce1 inh	Yeast UUG start	PABP FP inh
> CN(C)C(=O)CCc1ccc2c3c([nH]c2c1)[C@]1(CCc2ccccc2)[C@@H](C(=O)N2CCCCC2)C[C@H](CC(=O)NCc2ccco2)C(=O)N1CC3
  -1	-6	-44	x	x	x	6	x
> Fc1ccc(C2c3cccn3CCN2C(=S)Nc2cccc(Br)c2)cc1 (stereo unspecified)
  3	-5	11	26	-2	i	10	4
> CCOc1ccccc1C(=O)OCC(=O)Nc1ccc(N2CCCCC2)cc1
  -2	0	0	-2	-3	i	-3	1
> CCCCCC(=O)Nc1ccc(-c2cn3cccnc3n2)cc1
  4	3	1	x	0	i	-16	-6
> COc1ccccc1NC(=O)CN(Cc1ccco1)C(=O)c1ccc(-n2nc(C)cc2C)cc1
  -1	-3	-28	2	3	i	-7	-6
> CC/C(=N\NC(=O)c1cc(C)nc2ccccc12)c1ccc(C)s1
  4	-1	x	x	-6	i	x	-3
> CC(=O)Nc1cc(-c2ccncc2)cn2c(-c3ccccc3)cnc12
  0	2	-23	x	x	x	-46	x
> C[C@H](CO)N1C[C@H](C)[C@@H](CN(C)C(=O)Nc2ccc(F)cc2)Oc2ncc(-c3ccc(F)cc3)cc2C1=O
  2	1	-15	x	x	x	-5&11&-4	x
> O=C1CSC(c2ccccc2)N1Cc1ccccn1 (stereo unspecified)
  0	3	4	-7	-13	i	-15	-1
> CC(O)CNCCOc1ccccc1OCc1ccccc1 (stereo unspecified)
  0	5	-2	x	0	i	x	-4
> Cc1cc(C)n(-c2ccc(C(=O)NC3CCCCC3)cc2)n1
  2	0	11	-6	-5	i	x	0
> O=C(NCc1ccc(F)cc1)C1CCN(C(=O)NCc2ccccc2)CC1
  -4	8	-15	-7	7	i	-5	6
> CCC1CCCCN1C(=O)CSc1nc(N)c(NC(=O)c2ccco2)c(=O)[nH]1 (stereo unspecified)
  -1	5	-28	-9	-6	i	-10	9
> Cc1c(C)c(C)c2[nH]c(-c3ccc4c(c3)OCO4)nc2c1C
  6	-1	x	x	-2	i	x	0
> Cc1ccc2cc(/C=C3\N=C(c4ccccc4)OC3=O)c(N3CCOCC3)nc2c1
  x	x	-30	-4	-8	i	x	-7
> COC(=O)c1cc(C(=O)OC)[nH]n1
  2	2	2	-33	-4	i	x	-6
> O=C(Nc1ccc(N2CCOCC2)cc1N1CCOCC1)c1ccccc1
  0	4	-1	-1	x	x	-3	x
> COc1ccc(/C=C(/NC(=O)c2ccccc2)c2nc3ccccc3[nH]2)cc1OC
  0	-3	x	-7	-10	i	-7	4
> CCNC(=O)CN(c1ccc(Br)c(C)c1)S(C)(=O)=O
  0	5	12	-7	5	i	x	10
> CC(c1ccccc1)N1CC(C(=O)N2CCN(c3ccc(F)cc3)CC2)CC1=O (stereo unspecified)
  0	-3	-31	10	-2	i	4	-4

Looked up by structure from the entries so far (three):
Results follow in this order: MT1-MMP act inh	MT1-MMP act inh RFP	HIV Env fusion	CSC inhib	eIF4H FP inh	Rce1 inh	Yeast UUG start	PABP FP inh
> CCCCCC(=O)Nc1ccc(-c2cn3cccnc3n2)cc1
  4	3	1	x	0	i	-16	-6
> COC(=O)c1cc(C(=O)OC)[nH]n1
  2	2	2	-33	-4	i	x	-6
> COc1ccc(/C=C(/NC(=O)c2ccccc2)c2nc3ccccc3[nH]2)cc1OC
  0	-3	x	-7	-10	i	-7	4
